Ecoli rRNA inh – selective bacterial rRNA inhibition in E. coli; GFP signal change (wild-type ribosome), % (concentration not given with the values); AID 720706; E. coli WT GFP vs humanized-ribosome RFP mutants, fluorescence, 24 h; hits give low values; DMSO median 0, no signal -100; 350,000 compounds, 1.6% hits;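 active = significant combined selectivity score with lowered wild-type GFP, culture density cut under 30%, mutant RFP and density less affected; inactive = any of these conditions unmet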; also: one replicate is shown; some compounds called inactive have numbers as strong as hits
MLL AF4-AF9 inh – inhibitors of human MLL-AF4/AF9 interaction; P42568; AlphaScreen, biotin-AF4 peptide binding to FLAG-AF9; inhibition, % at 10 µM; 350,000 compounds, 0.47% hits; AID 651704;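 active = every replicate reaching a set inhibition limit, whatever the replicate mean, cut at about 25% in these data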;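 also: 0% = plate neutral control median and 100% = total signal loss; the record names both 10 and 1 µM as test concentration; the first replicate is given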
Target sequence (P42568 whole entry, looked up): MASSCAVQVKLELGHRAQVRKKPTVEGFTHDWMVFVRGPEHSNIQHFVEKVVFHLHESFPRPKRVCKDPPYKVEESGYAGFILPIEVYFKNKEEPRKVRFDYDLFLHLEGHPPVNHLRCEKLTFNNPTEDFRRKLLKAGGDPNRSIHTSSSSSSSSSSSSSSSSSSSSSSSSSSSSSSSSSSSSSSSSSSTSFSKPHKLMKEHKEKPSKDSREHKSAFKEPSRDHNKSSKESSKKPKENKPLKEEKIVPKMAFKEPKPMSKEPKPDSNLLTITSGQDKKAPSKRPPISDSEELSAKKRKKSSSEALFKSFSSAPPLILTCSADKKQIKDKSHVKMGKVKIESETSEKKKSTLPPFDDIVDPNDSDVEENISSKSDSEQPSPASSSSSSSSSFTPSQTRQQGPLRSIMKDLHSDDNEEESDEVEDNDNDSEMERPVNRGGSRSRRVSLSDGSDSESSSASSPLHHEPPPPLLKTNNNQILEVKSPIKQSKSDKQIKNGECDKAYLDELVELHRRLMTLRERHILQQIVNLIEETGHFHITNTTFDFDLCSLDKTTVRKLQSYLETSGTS
Ecoli rRNA inh OD600 – recorded beside Ecoli rRNA inh, whose call it bears; OD600 change, %; measured here: OD600 growth;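 optical density of the mix in the first replicate; 0 = DMSO median and -100 = no signal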
Ecoli rRNA inh RFP – recorded beside Ecoli rRNA inh, whose call it bears; RFP signal change, %; measured here: RFP humanized mutant strains;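 first replicate; 0 = DMSO median and -100 = no signal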
* = called active by the depositor; & = joins results of further samples. These rows are one share of the data; the hit share may differ from the screen's.

Start of the data: the first 3 entries (preview)
Structure,MLL AF4-AF9 inh,Ecoli rRNA inh OD600,Ecoli rRNA inh,Ecoli rRNA inh RFP
C[C@@H]1CN([C@@H](C)CO)S(=O)(=O)c2ccc(C3=CCCCC3)cc2O[C@H]1CN(C)Cc1ccccc1F,6.8,-2,4,-2.8
CN1c2ccc(C#Cc3cccnc3)cc2[C@H]2[C@H](CCN2C(=O)C2CCC2)[C@@H]1CO,3.2,-37,-22,0.5
O=C(CN1CCOCC1)N[C@H]1CC[C@H](CCn2cc(C3CCCC3)nn2)O[C@H]1CO,-5.5,-2,-1,-2.2

The list itself, repeating the preview:
Structure,MLL AF4-AF9 inh,Ecoli rRNA inh OD600,Ecoli rRNA inh,Ecoli rRNA inh RFP
C[C@@H]1CN([C@@H](C)CO)S(=O)(=O)c2ccc(C3=CCCCC3)cc2O[C@H]1CN(C)Cc1ccccc1F,6.8,-2,4,-2.8
CN1c2ccc(C#Cc3cccnc3)cc2[C@H]2[C@H](CCN2C(=O)C2CCC2)[C@@H]1CO,3.2,-37,-22,0.5
O=C(CN1CCOCC1)N[C@H]1CC[C@H](CCn2cc(C3CCCC3)nn2)O[C@H]1CO,-5.5,-2,-1,-2.2
C[C@@H]1CN([C@@H](C)CO)S(=O)(=O)c2ccc(C#CCN(C)C)cc2O[C@H]1CN(C)C,-0.5,-4,2,0.2
O=C(Nc1ccccc1)N1CC(=O)N2[C@H](CO)[C@@H](c3ccc(C#CC4CCCCC4)cc3)[C@@H]2C1,3.6,8,4,-1.6
O=C(N[C@H]1CC[C@H](CCNS(=O)(=O)c2ccccc2)O[C@H]1CO)c1cccc(F)c1,0.3,4,-1,1.8
C[C@@H]1CN([C@H](C)CO)C(=O)Cc2cc(NC(=O)Cn3cnnn3)ccc2O[C@H]1CN(C)C(=O)Nc1ccc(C(F)(F)F)cc1,0.1,-2,-3,-2.2
C[C@H](CO)N1C[C@H](C)[C@@H](CN(C)C(=O)CCN(C)C)OCc2ccccc2-c2c(n(C)c3ccccc23)C1=O,-7.6,10,1,-3.3
COc1cccc(CN2[C@@H]3CNC[C@H]2C3c2ccc(-c3ccncc3)cc2)c1 (some centres not stated),14&3.7,5&-4,5&0,1.8&-1.1
Cc1noc(C)c1S(=O)(=O)Nc1ccc2c(c1)C(=O)N([C@H](C)CO)C[C@H](C)[C@H](CN(C)C)OCCCC[C@H](C)O2,-4.4,-5,1,1.3
C[C@@H]1CCCCO[C@H](CN(C)C(=O)c2ccncc2)[C@@H](C)CN([C@H](C)CO)C(=O)c2cc(NC(=O)CCCCCC(=O)Nc3ccccc3N)ccc2O1,6.5,15,2,-1.4
C[C@H]1CN([C@@H](C)CO)C(=O)c2cc(-c3cccc(C#N)c3)cnc2O[C@@H]1CN(C)C(=O)c1ccccn1,-4.2,11,2,-1.6
CN(C)C(=O)C[C@H]1CC[C@@H]2[C@H](COc3ccc(NC(=O)C4CC4)cc3C(=O)N2C)O1,-1.3,3,4,-0.4
C[C@@H]1CCCCO[C@H](CN(C)CC2CC2)[C@H](C)CN([C@H](C)CO)C(=O)c2cc(NS(=O)(=O)c3ccccc3)ccc2O1,5.4,9,3,-2.0
COc1ccc(NC(=O)Nc2ccc3c(c2)CC(=O)N([C@@H](C)CO)C[C@@H](C)[C@H](CN(C)C(=O)NC(C)C)O3)cc1,4.3,2,2,2.4

An excerpt from above with just Ecoli rRNA inh OD600, Ecoli rRNA inh RFP and MLL AF4-AF9 inh:
molecule,Ecoli rRNA inh OD600,Ecoli rRNA inh RFP,MLL AF4-AF9 inh
CN1c2ccc(C#Cc3cccnc3)cc2[C@H]2[C@H](CCN2C(=O)C2CCC2)[C@@H]1CO,-37,0.5,3.2
O=C(CN1CCOCC1)N[C@H]1CC[C@H](CCn2cc(C3CCCC3)nn2)O[C@H]1CO,-2,-2.2,-5.5

Remaining list, next part
Structure,MLL AF4-AF9 inh,Ecoli rRNA inh OD600,Ecoli rRNA inh,Ecoli rRNA inh RFP
CC(C)(C)OC(=O)N(CCc1ccccc1)Cc1cccc(OCc2cccc(NC(=O)C3CCC3)c2)c1,0.2,9,5,5.4
C[C@H]1CN([C@@H](C)CO)C(=O)c2ccccc2-c2ccccc2CO[C@H]1CN(C)S(=O)(=O)c1cccc(F)c1,1.1,-20,-3,8.2
CCN(C[C@@H]1N[C@@H](CO)[C@@H]1c1ccc(-c2ccc(F)cc2)cc1)C(=O)COC,4.3,-7,0,1.2
C[C@H]1CN([C@@H](C)CO)S(=O)(=O)c2ccc(C#Cc3ccccc3F)cc2O[C@H]1CN(C)CC1CC1,3.4,-4,-3,19
C[C@H]1CCCCO[C@@H](CN(C)C(=O)CCC(F)(F)F)[C@@H](C)CN([C@@H](C)CO)C(=O)c2cc(NS(C)(=O)=O)ccc2O1,-12,-1,1,0.1
C/C=C/c1ccc(C2[C@@H]3CN(Cc4ccc5c(c4)OCO5)C[C@H]2N3)cc1 (some centres not stated),14&11,-43&8,-9&-3,22&1.5
CN1CCC(C)(C(=O)Nc2ccc3c(c2)OCCO3)C1 (configuration not stated),0.0,6,8,1.6
COCC(=O)Nc1ccc2c(c1)C(=O)N(C)C[C@@H](OC)[C@H](C)CN(Cc1ccncc1)[C@H](C)CO2,-0.9,2,2,-0.5
COc1ccc(NC(=O)N(C)C[C@H]2Oc3ccc(NC(=O)NC(C)C)cc3CC(=O)N([C@@H](C)CO)C[C@@H]2C)cc1,-16,-3,2,-2.5
COc1ccc(NC(=O)Nc2ccc3c(c2)C(=O)N([C@H](C)CO)C[C@H](C)[C@@H](CN(C)Cc2ccc(-c4ccccc4)cc2)O3)cc1,4.2,5,-2,2.7
O=C(C[C@@H]1C=C[C@@H](NS(=O)(=O)c2ccccc2)[C@H](CO)O1)NCc1ccc(Cl)c(Cl)c1,-1.1,-23,-8,-1.4
C[C@H](CO)N1C[C@H](C)[C@@H](CN(C)C)Oc2c(NC(=O)Nc3ccc4c(c3)OCO4)cccc2C1=O,-0.4,11,4,-0.3
C[C@@H]1CN([C@H](C)CO)C(=O)c2cccc(NS(=O)(=O)c3cccs3)c2O[C@H]1CN(C)S(=O)(=O)c1cn(C)cn1,-4.0,1,2,-1.5
COc1ccc(S(=O)(=O)Nc2cccc3c2O[C@@H](CN(C)C(=O)Nc2ccccc2)[C@@H](C)CN([C@@H](C)CO)C3=O)cc1,1.8,-1,0,0.4
COc1ccccc1CN1[C@H](CO)[C@@H](c2ccccc2)C12CN(C(=O)c1cnccn1)C2,3.7,3,1,1.5
C[C@H](CO)N1C[C@H](C)[C@@H](CN(C)C(=O)Nc2cccc3ccccc23)OCCCC[C@H](C)Oc2ccc(NC(=O)Nc3ccc4c(c3)OCO4)cc2C1=O,-0.5,2,1,0.0
CN(C)CC(=O)N1CCCCN2[C@@H](CO)[C@@H](c3ccc(/C=C/c4ccccc4)cc3)[C@@H]2C1,3.8,1,2,0.5
CC(=O)N(C)C[C@H]1Oc2cc(C#CC3CCCC3)ccc2S(=O)(=O)N([C@H](C)CO)C[C@@H]1C,3.7,-10,1,1.5
Cc1ccc(CN2CC(N3CCC(c4ccccc4)CC3)CS2(=O)=O)cc1 (configuration not stated),3.4,-53,-29,3.6
Cc1ccsc1-c1cc2nc(NCCCN(C)C)n(C)c(=O)c2s1,12,-1,9,3.8
CCNC(=O)[C@@H]1[C@@H](CO)[C@@H]2Cn3c(ccc(-c4ccccc4)c3=O)[C@@H]2N1CC1CC1,0.5,10,-1,-3.2
O=C(C[C@@H]1C[C@H]2c3cc(NC(=O)CC4CC4)ccc3O[C@H]2[C@@H](CO)O1)NCC(F)(F)F,-1.8,28,10,-0.4
O=C(O)CCC(C(=O)O)N1C(=O)C2C3CCC(C3)C2C1=O (configuration not stated),-2.2,2,3,-2.7
COCC(=O)N1CC(=O)N2[C@H](C1)[C@@H](c1ccc(C#CCc3ccccc3)cc1)[C@@H]2CO,-1.7,3,1,3.4
C[C@@H]1CCCCO[C@@H](CN(C)S(=O)(=O)c2cn(C)cn2)[C@H](C)CN([C@@H](C)CO)C(=O)c2cc(NC(=O)Nc3ccc(F)cc3)ccc2O1,-1.2,-7,-1,-0.3
O=C(Nc1ccc2c(c1)[C@@H]1C[C@@H](CC(=O)N3CCOCC3)O[C@H](CO)[C@@H]1O2)c1cccnc1,-1.2,4,-1,-0.7
CCc1cc2c(nc1CC)CCCN2S(=O)(=O)c1ccccc1C,-2.3,-76,-50,-15
CCCNC(=O)C[C@@H]1CC[C@H]2[C@H](COc3ccc(NC(=O)Nc4ccccc4F)cc3C(=O)N2C)O1,0.3,-4,-4,2.6
COc1ccc(Cl)cc1-c1noc([C@@H]2O[C@H](CO)[C@H](O)[C@H](O)[C@H]2O)n1,-3.7,5,-3,-3.3
C[C@@H]1CN([C@H](C)CO)C(=O)c2cc(NS(C)(=O)=O)ccc2O[C@H]1CN(C)C,-7.3,1,1,-2.2
C[C@H](CO)N1C[C@H](C)[C@@H](CN(C)C(=O)Nc2cccc(F)c2)Oc2cc(/C=C/c3ccccc3)ccc2S1(=O)=O,0.8,5,-3,-0.4
O=[N+]([O-])c1ccc(COc2ccc(CN3CCCCC3)cc2)cc1,1.9,13,9,-1.3
O=C(C1CCC1)N1C[C@@H]2N[C@H](C1)C2c1ccc(-c2cncnc2)cc1 (some centres not stated),-12,-4,3,0.7
CCN1C[C@@H]2[C@@H]3C(=O)N(Cc4ccccc4)C(=O)[C@@H]3[C@](C)(C1=O)N2C(=O)c1ccc(Br)cc1,-0.8,-1,2,11
O=C(C[C@H]1CC[C@H]2[C@@H](COC[C@@H](O)CN2Cc2ccccc2F)O1)NCc1ccccc1F,0.4,-3,-4,-0.6
C[C@@H]1CN([C@H](C)CO)C(=O)c2cc(NC(=O)C3CCCCC3)ccc2O[C@@H]1CN(C)C(=O)Nc1ccc2c(c1)OCO2,-0.4,-4,-2,-1.2
O=C(CCN1CCCCC1)NCC[C@H]1CC[C@H](NC(=O)Nc2ccc(Cl)cc2)[C@@H](CO)O1,2.9,-3,1,-1.7
N#Cc1cccc(-c2ccc([C@@H]3[C@@H](CO)N4CCCCN(Cc5ccccc5F)C[C@@H]34)cc2)c1,9.4,-82,-55,-9.4
C[C@@H]1CN([C@@H](C)CO)C(=O)c2cc(NS(=O)(=O)c3ccc(F)cc3)ccc2O[C@@H]1CN(C)Cc1ccc(-c2ccccc2)cc1,4.4,-15,1,13
CCCNC(=O)N(C)C[C@H]1Oc2cc(C#CCC(C)C)ccc2S(=O)(=O)N([C@H](C)CO)C[C@H]1C,-1.0,-5,-7,1.2
CCC(=O)N(C)C[C@@H]1Oc2cc(-c3cccc(C#N)c3)ccc2S(=O)(=O)N([C@H](C)CO)C[C@@H]1C,-3.2,-5,-9,1.2
O=C(c1ccccc1)N1C[C@@H]2[C@H](c3ccccc31)[C@H](CO)N2Cc1ccccn1,0.6,6,-1,2.1
C[C@@H]1CCCCO[C@@H](CN(C)C(=O)Nc2ccc(C(F)(F)F)cc2)[C@H](C)CN([C@@H](C)CO)C(=O)c2cc(NS(=O)(=O)c3cn(C)cn3)ccc2O1,1.0,-79,-58,-22
COc1cccc(CNC(=O)C[C@@H]2CC[C@H](NC(=O)C3CCC3)[C@@H](CO)O2)c1,-0.8,4,3,0.0
C[C@@H]1CN([C@H](C)CO)C(=O)c2cccc(NC(=O)Nc3ccc(C(F)(F)F)cc3)c2O[C@@H]1CN(C)S(=O)(=O)c1cccs1,-0.7,-6,-2,2.5

Looked up above.
In MLL AF4-AF9 inh, O=C(C1CCC1)N1C[C@@H]2N[C@H](C1)C2c1ccc(-c2cncnc2)cc1 (some centres not stated) shows -12
In Ecoli rRNA inh, C[C@@H]1CN([C@H](C)CO)C(=O)c2cc(NC(=O)C3CCCCC3)ccc2O[C@@H]1CN(C)C(=O)Nc1ccc2c(c1)OCO2 shows -2
In MLL AF4-AF9 inh, CCCNC(=O)N(C)C[C@H]1Oc2cc(C#CCC(C)C)ccc2S(=O)(=O)N([C@H](C)CO)C[C@H]1C shows -1.0
In MLL AF4-AF9 inh, C[C@@H]1CCCCO[C@@H](CN(C)C(=O)Nc2ccc(C(F)(F)F)cc2)[C@H](C)CN([C@@H](C)CO)C(=O)c2cc(NS(=O)(=O)c3cn(C)cn3)ccc2O1 shows 1.0
In Ecoli rRNA inh, C[C@H](CO)N1C[C@H](C)[C@@H](CN(C)C(=O)Nc2cccc(F)c2)Oc2cc(/C=C/c3ccccc3)ccc2S1(=O)=O shows -3

Continuation:
Structure,MLL AF4-AF9 inh,Ecoli rRNA inh OD600,Ecoli rRNA inh,Ecoli rRNA inh RFP
C[C@H](CO)N1C[C@H](C)[C@@H](CN(C)Cc2cccc(F)c2)Oc2ncc(-c3ccccc3F)cc2C1=O,1.6,-2,-3,1.9
O=C1NC[C@H](CCCCN2C[C@H](Cc3ccccc3)N(CCc3ccc(O)cc3)C(=O)C2=O)N(CCc2ccccc2)C1=O,0.6,-12*,-18*,4.2*
CN1CCN(C(=O)[C@@H]2[C@@H](CO)[C@@H]3Cn4c(ccc(C5=CCCC5)c4=O)[C@@H]3N2Cc2nccs2)CC1,-1.4,9,1,-1.9
C[C@H](CO)N1C[C@H](C)[C@H](CN(C)Cc2ccc3c(c2)OCO3)OCCCC[C@H](C)Oc2ccc(NS(C)(=O)=O)cc2C1=O,-3.5,5,0,-0.3
CCc1nc2ccc(C(=O)Nc3ccc4c(c3)OCC(=O)N4)cn2c1N(CC)Cc1cccc(Br)c1,-3.8,-22,-13,-3.2
Cc1noc(C)c1NC(=O)N[C@@H]1C=C[C@@H](CC(=O)Nc2ccc(-c3ccccc3)cc2)O[C@H]1CO,-1.9,-5,-2,1.9
COC(=O)C[C@H]1CC[C@@H]2[C@H](COc3ccc(NC(=O)c4ccccc4)cc3C(=O)N2C)O1,-1.5,11,-2,0.7

Bioassay records deposited in PubChem BioAssay by Broad Institute.
